MgrA DNA FP = modulators of Staphylococcus aureus MgrA DNA binding; inhibition, %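 (about 10 µg/mL by stock and volumes)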; 0.13% of 84,000 active; fluorescence polarization;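 active means above 50% in either of two replicates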;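 further: 0% = protein plus DNA without compound and 100% = DNA alone without protein; higher means less MgrA bound to DNA so lower polarization; one replicate is shown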
S aureus helic = S. aureus DNA helicase inhibition; AID 485395; inhibition, %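 (tested at about 80 µM)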; 0.05% of 120,000 active; purified S. aureus helicase, fluorescence unwinding assay; about half of the hits fall short of the stated cut;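 active means both duplicates at 50% or more, or one of them with a favoured structure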;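 further: 0% = mean of negative control wells and 100% = mean of positive control wells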
Active calls of the source: *; x = not tested or not shown; & = joins results of further samples. These rows are one share of the data; rates above refer to the full screens.

The opening five compounds as a preview:
SMILES	MgrA DNA FP	S aureus helic
COc1ccc(-c2noc(=O)n2CC(=O)N2CCC(C)CC2)cc1	-1.6	1
FC(F)(F)c1ccc(NCC2CCCO2)nc1 (configuration not stated)	1.4	9
O=C1CCC(C(=O)OCc2csc(Nc3ccccc3)n2)N1 (configuration not stated)	x	1
CCNS(=O)(=O)c1ccc(-c2cc(C)no2)s1	x	11
CC(=O)n1cc(C(SCc2ccccc2)C(NO)C(=O)OCc2ccccc2)c2ccccc21 (configuration not stated)	-0.4	x

The list itself (from the top)
SMILES	MgrA DNA FP	S aureus helic
COc1ccc(-c2noc(=O)n2CC(=O)N2CCC(C)CC2)cc1	-1.6	1
FC(F)(F)c1ccc(NCC2CCCO2)nc1 (configuration not stated)	1.4	9
O=C1CCC(C(=O)OCc2csc(Nc3ccccc3)n2)N1 (configuration not stated)	x	1
CCNS(=O)(=O)c1ccc(-c2cc(C)no2)s1	x	11
CC(=O)n1cc(C(SCc2ccccc2)C(NO)C(=O)OCc2ccccc2)c2ccccc21 (configuration not stated)	-0.4	x
Cc1ccc(S(=O)(=O)N2CCCC(C(=O)N/N=C3\CCS(=O)(=O)c4ccc(F)cc43)C2)cc1 (configuration not stated)	x	-11
COc1ccccc1NC(=O)CSc1nc2sc3c(c2c(=O)n1-c1ccccc1)CC(C)(C)OC3	x	12
CCOc1ccc(-c2cc3ccccn3c2)cc1	x	-13
O=C(CSc1ncccn1)NC12CC3CC(CC(C3)C1)C2	x	6
COc1cc2nc(NCCCN(C)Cc3ccccc3)n3nc(-c4ccccc4)nc3c2cc1OC	-3.1	17
CCC(=O)c1ccccc1OCCn1cnc2ccccc2c1=O	0.8	8
CC(C)(CC(=O)O)CC(=O)Nc1ccc2ccccc2n1	-2.1	x
O=C(NCCN1CCN(Cc2ccccc2)CC1)c1ccc2c(Cl)c3c(nc2c1)CCCC3	0.3	7
O=C(CSc1ccccc1)Nc1nc2c(s1)CCCC2	x	-5
C=CCn1cc(/C=C2\SC(=O)N(C)C2=O)c2ccccc21	-0.9	-2
COc1ccccc1CCNC(=O)c1ccc(C)o1	-1.1	15
O=C(CC1Oc2ccccc2NC1=O)NCc1ccccc1 (configuration not stated)	x	13
O=C1c2ccccc2C(=O)C1c1cc(=O)[nH]c2ccccc12	13	22
O=C(COc1ccc(S(=O)(=O)N2CCOCC2)cc1)NCc1ccccc1	-5.0	19
COc1ccccc1CNS(C)(=O)=O	3.5	16

Continued (6 carried over from the part before).
SMILES	MgrA DNA FP	S aureus helic
C=CCn1cc(/C=C2\SC(=O)N(C)C2=O)c2ccccc21	-0.9	-2
COc1ccccc1CCNC(=O)c1ccc(C)o1	-1.1	15
O=C(CC1Oc2ccccc2NC1=O)NCc1ccccc1 (configuration not stated)	x	13
O=C1c2ccccc2C(=O)C1c1cc(=O)[nH]c2ccccc12	13	22
O=C(COc1ccc(S(=O)(=O)N2CCOCC2)cc1)NCc1ccccc1	-5.0	19
COc1ccccc1CNS(C)(=O)=O	3.5	16
COCCn1c(C)cc(C(=O)CSc2nc3ccc(C)cc3[nH]2)c1C	x	1
N#Cc1ccc(C(=O)NC2CCC(NC(=O)c3ccc(C#N)cc3)CC2)cc1 (configuration not stated)	0.2	-1
O=C1C2C3C=CC(CO)(O3)C2C(=O)N1c1cccc2ccccc12 (configuration not stated)	0.6	x
Cc1[nH]c2ccc(C(=O)Nc3ccc4c(c3)OCCO4)cc2c1C	x	-6
Cc1c(C(=O)O)sc2nc(C(F)(F)F)nn12	-1.9	x
CC1Cc2ccccc2N1C(=O)COc1ccccc1C#N (configuration not stated)	-0.5	8
Cc1cc2cc(CNC(=O)CCC(=O)O)ccc2[nH]1	x	16&0
NCC1OC(OC2C(N)CC(N)C(O)C2O[C@@H]2O[C@H](CO)[C@H](O)C2O)C(N)C(O)C1O (some centres not stated)	0.4	x
Cc1ccc(S(=O)(=O)N(CCC#N)CCN2CCCC2)cc1	x	4
CC(Oc1ccc(Cl)cc1)c1ccnc2c(C#N)cnn12 (configuration not stated)	1.1	x
CCSC1=N/C(=C\c2ccc(C)s2)C(=O)S1	2.1	4
Ic1cccc(CSc2nnnn2-c2ccc3c(c2)OCO3)c1	-1.4	-1
O=c1[nH]cnc2c1nnn2Cc1ccccc1Cl	1.2	x
CC(C)Sc1ccc2nnc(-c3cccc(F)c3)n2n1	x	9
c1ccc(-c2nnc(SCc3cn4ccccc4n3)o2)cc1	x	-22
CCCc1ccc(-c2nc(NC(=O)CSCC(=O)Nc3cc(C)on3)sc2C)cc1	x	13
COc1ccc(OC)c(S(=O)(=O)NC(C)(C)C)c1	-3.3	x
Cn1cnnc1SCc1ccc(C(=O)n2ncc(C#N)c2N)cc1	x	-3
CCOc1ccc(C(=O)Nc2nnc(-c3ccccc3)s2)cc1	x	5
CCCCN(C)C(=O)c1cc2cc3ccc(OC)cc3nc2o1	-1.4	9

A different layout for part of the listing above:
SMILES,MgrA DNA FP,S aureus helic
N#Cc1ccc(C(=O)NC2CCC(NC(=O)c3ccc(C#N)cc3)CC2)cc1 (configuration not stated),0.2,-1
O=C1C2C3C=CC(CO)(O3)C2C(=O)N1c1cccc2ccccc12 (configuration not stated),0.6,x

Following part.
SMILES	MgrA DNA FP	S aureus helic
O=C(CN1CCOCC1)Nc1c(-c2ccccc2)c2cc(Br)ccc2[nH]c1=O	3.1	-3
CC(C)NC(=O)c1cccc2cccc(Sc3ccccc3)c12	-0.5	x
COc1cccc(C(=O)N2CCN(C(=O)c3ccccc3)CC2)c1	x	23
O=C(Nc1nnc(CCS(=O)(=O)c2ccc(Cl)cc2)s1)c1ccc(Cl)cc1	0.4	x
O=C(/C=C/c1ccco1)Nc1nc(-c2ccc3c(c2)OCO3)cs1	x	0
O=C(NC(c1ccccc1)c1ccccc1)C1CC1	1.4	3
CNC(=O)C(C)n1nc(C)c2c(C)n(-c3ccccc3)nc2c1=O (configuration not stated)	x	-5
CC(=O)Nc1nc(SCc2ccccn2)[nH]c(=O)c1NC(=O)c1ccccc1	x	-4
CCCN(CCC)S(=O)(=O)c1c[nH]c(C(=O)OC)c1	2.8	-1
CC(C)CNc1ncnc2c1sc1nc(C(C)C)c3c(c12)CC(C)(C)OC3	-0.9	11
Cc1ccc(C(=O)N/C(=C\c2ccco2)C(=O)NCc2ccco2)cc1	x	-20
COCCn1c(-c2ccc(C(C)(C)C)cc2)n[nH]c1=S	0.1	7
CC(=NCCSCc1nc[nH]c1C)c1c(C)[nH]n(-c2nc3ccccc3s2)c1=O	-3.9	9
COc1ccc(C2=C(N3CCN(c4ccccn4)CC3)c3ccccc3C2=O)cc1	x	-24
Cc1cc(C)c(S(=O)(=O)NC(CC(=O)O)c2ccccc2)c(C)c1 (configuration not stated)	x	-5
CN(CC(=O)Nc1nnc(C2CC2)s1)S(=O)(=O)c1ccc(Cl)cc1	x	-14
Cc1cc(Nc2ccccc2)nn1C(=O)c1ccccc1	-0.6	-16
O=C(Cn1ncc2ccccc21)Nc1ccc(Br)cc1F	x	20
CN1C(=O)/C(=C\c2c(Cl)nc3sccn23)N(C)C1=S	x	-7
CC(=O)NCCn1c(SCC(=O)NCc2ccccc2)nc2ccccc2c1=O	-0.2	-5
Cc1ccc(S(=O)(=O)N2CC(=O)NC(=O)C2)cc1	0.7	x
CN(Cc1ccccc1)C(=O)COC(=O)c1ccc(Cl)c(N)c1	-1.9	9
Cc1cc(C)c2c(=O)n(C(=O)c3ccccc3)sc2n1	8.2	x
CN(C(=O)c1ccc(NC(=O)c2ccco2)cc1)C1CCCCC1	0.8	-3
O=C(/C=N/O)Nc1ccccc1F	-2.7	x
O=C(N/N=C/c1ccccc1)c1cccc(S(=O)(=O)N2CCCC2)c1	x	11
C=C(C)Oc1ccccc1OCC(=O)C(C)(C)C	-2.7	-8
S=c1[nH]cc(-c2ccccc2)n1-c1ccccc1	x	9
CCn1cc(C(=O)NCCC2=CCCCC2)c2cc(OC)c(OC)cc2c1=O	-0.1	13
Cc1ccc(CNc2n[nH]c(=S)s2)cc1	6.5	x
COC(=O)c1sc(N)c(C(=O)OC)c1Cn1c(Cl)nc2c1c(=O)n(C)c(=O)n2C	x	-9
O=C(CN1C(=O)/C(=C\c2ccc(F)cc2)Oc2ccccc21)N1CCCC1	x	39
COc1cc(CCN2C(=O)CCC2(C)C(=O)N2CCCC2)cc(OC)c1OC (configuration not stated)	x	12
O=C(Cc1ccccc1)N/N=C/c1ccncc1	0.0	x
O=C(CSc1nnnn1Cc1ccccc1)Nc1ccccc1Oc1ccccc1	-1.2	0
CCCC1CCC(c2ccc(OC(=O)c3cccnc3)cc2)CC1 (configuration not stated)	2.8	0
CC(C)c1ccc2nc(SCC(=O)NC(C)(C)C)c(C#N)cc2c1	-0.4	5
FC(F)(F)c1ccnc(NC2CCN(Cc3ccccc3)CC2)n1	0.6	x
Cc1cccc(NC(=O)C2CCN(c3ccc(-c4cccs4)nn3)CC2)n1	x	3
CSC(SC)=C(C#N)S(=O)(=O)C(C)C	4.4	x
CC1=NN2C(=NC(=O)C(n3nnnc3C)C2c2ccccc2)O1 (configuration not stated)	x	-2
Cc1csc2ncnc(N3CCCCC3)c12	1.1	x
Cc1nc2c3ccccc3n3c(CCCC(=O)O)nnc3n2n1	-1.4	19
Cc1cccc(NC(=O)CCOc2ccccc2)c1	3.5	14
c1ccc(-c2[nH]ncc2CNCc2cccs2)cc1	-1.1	-3
c1ccc2c(-c3nnc(CN4CCCCC4)o3)cccc2c1	-1.8	x
O=C(c1cccs1)N1CCN(c2cc(C(F)(F)F)nc3ccccc23)CC1	-0.2	x
Cn1cnc2c1c(=O)[nH]c(=O)n2C	2.6&1.0	x
Cc1cc2cc(C#N)c(N3CCOCC3)nc2cc1Cl	1.3	15
COc1ccccc1N1C(=O)C=C(Nc2ccccc2)C1=O	3.4	19
O=C(NCc1ccco1)N1c2ccccc2Sc2ccccc21	2.2	-5
CCOC(=O)c1ccccc1NC(=O)COC(=O)C(C)N=C1NS(=O)(=O)c2ccccc21 (configuration not stated)	x	-4
Cc1cc(NNS(=O)(=O)CC23CCC(CC2=O)C3(C)C)nc2ccccc12 (configuration not stated)	x	-8
Cn1ncc(I)c1C(=O)O	x	-9
CCOC(=O)c1ccc(NC(=S)NC(C)c2ccc3c(c2)OCCO3)cc1 (configuration not stated)	-0.9	x
Cn1ncnc1C(O)(c1c[nH]c2ccccc12)C(F)(F)F (configuration not stated)	x	-9
O=C1C2C3C=CC(C3)C2C(=O)N1N1CCCCC1 (configuration not stated)	0.7	2
CC1CCCC(C)N1C(=O)COC(=O)c1ccccc1O (configuration not stated)	-1.1	24
CCc1ccc(NS(=O)(=O)c2cnn(CC)c2)cc1	1.8	14
COc1ccc(Cc2nnc(N)s2)cc1OC	x	5
Continued:
SMILES	MgrA DNA FP	S aureus helic
CN(CCC#N)C(=O)c1nn(C)c2c1COc1ccccc1-2	0.3	4
CCCn1c(=O)c(-c2nc3ccccc3c(=O)[nH]2)c(O)c2ccccc21	-1.4	12
CC1CCN(S(=O)(=O)c2ccc(C(=O)NCCCN3CCCC3=O)cc2)CC1	x	5
CSc1nnc(NC(=O)c2cc3ccccc3oc2=O)s1	x	-11
O=C(CSc1nnc(COc2ccccc2Cl)n1C1CC1)c1ccc(Cl)s1	x	8
O=P(O)(CN1CCOCC1)C1Cc2ccccc2C1	0.6	-1
COC(=O)c1ccccc1COn1c(=O)c[n+]([O-])c2ccccc21	-0.4	7
CCS(=O)(=O)N1CCc2cc(C(=O)CSc3n[nH]c(=O)n3Cc3ccccc3)ccc21	x	7
CS(=O)(=O)c1ccc(-c2nnn(Cc3ccccc3)n2)cc1	0.8	1
Nc1nc(F)cc(N2CCOCC2)n1	-1.3	x
CC(=O)NCCc1ccc(C(=O)CSc2nnc(C3CC3)n2C2CC2)cc1	x	12
CCOc1ccc(-c2nnc(N3CCCCC3)c3ccccc23)cc1	1.0	13
O=C(COC(=O)c1cccc(O)c1)c1cccc(C(F)(F)F)c1	-2.0	22
Fc1ccc(Nc2nc3nonc3nc2N2CCC(Cc3ccccc3)CC2)cc1	-1.9	x
CCOC(=O)c1ccc(N=Cc2ccc(Cl)cc2)cc1	-1.0	6
O=C(/C=C/c1cccs1)N(CC1CCCO1)c1nc2ccccc2s1 (configuration not stated)	x	7
CN(C)S(=O)(=O)N1CCC(C(=O)Nc2ccccc2)CC1	-1.1	19
CCC(C(=O)NC1CCCc2ccccc21)n1nc(C)n2c(cc3sccc32)c1=O (configuration not stated)	-0.6	14
O=C(NCc1ccccc1)NS(=O)(=O)c1ccccc1Cl	3.2	5
Cc1cc(C(=O)Nc2c(C)nn(Cc3ccccc3)c2C)on1	x	15
O=c1[nH]c(NC2CCN(S(=O)(=O)c3ccc(C(F)(F)F)cc3)CC2)nc2c1CCCC2	-3.1	13
Clc1cccc(Cc2nn[nH]n2)c1	x	12
C=CCSc1nnc(Cn2nnc3ccccc32)n1-c1ccc(Cl)cc1	-3.4	x
COc1cc([N+](=O)[O-])c(OC)cc1SCC(=O)NNS(=O)(=O)c1ccc(Cl)cc1	1.3	x
CCc1cc(C(=O)Cc2nc3ccccc3[nH]2)c(O)cc1O	-0.3	10
O=C(CCCN1C(=O)CSc2ncccc21)N1CCc2ccccc21	-2.0	-6
Cc1onc(-c2ccccc2Cl)c1C(=O)Nc1ccccc1Cl	x	-3
N#Cc1sc2nc3ccccc3n2c1/N=C/N1CCOCC1	-1.1	x
O=S(=O)(c1cccs1)N1CCCc2ccccc21	x	3
COc1ccc(NCc2ccccc2O)cc1	3.0	-2
CCS(=O)(=O)c1ccc2oc(=S)[nH]c2c1	x	6
Cc1ccnc(NC(=O)CCNS(=O)(=O)c2ccc3c(c2)c(=O)n(C)c(=O)n3C)c1	-2.0	9
O=C(/C=C/c1cccs1)Nc1nccs1	x	-5
O=S(=O)(c1ccc(Cl)cc1)N1CCN=C1COc1cccnc1	1.4	x

Quoted at random: 2 records from the list, in no set order.
SMILES	MgrA DNA FP	S aureus helic
O=P(O)(CN1CCOCC1)C1Cc2ccccc2C1	0.6	-1
CSc1nnc(NC(=O)c2cc3ccccc3oc2=O)s1	x	-11

Bioassay records deposited in PubChem by ICCB-Longwood Screening Facility, Harvard Medical School.
